# Screening results (PubChem)
# GIV-Gai inh = GIV-Galpha-i interaction inhibition | 210,000 compounds, 0.42% hits | percent of control (FP), % (concentration not given with the values) | P08753 | Galpha-i3/FITC-GIV peptide fluorescence polarization, 90 min; stronger effect = lower value; scaled: aluminum fluoride 0%, vehicle 100%;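 active = replicate mean at 85% of control or lower, very high polarization wells dropped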;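 also: wells of about 15 µL received 100 nL stock; the first replicate is given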
# Target sequence (P08753 whole entry, looked up): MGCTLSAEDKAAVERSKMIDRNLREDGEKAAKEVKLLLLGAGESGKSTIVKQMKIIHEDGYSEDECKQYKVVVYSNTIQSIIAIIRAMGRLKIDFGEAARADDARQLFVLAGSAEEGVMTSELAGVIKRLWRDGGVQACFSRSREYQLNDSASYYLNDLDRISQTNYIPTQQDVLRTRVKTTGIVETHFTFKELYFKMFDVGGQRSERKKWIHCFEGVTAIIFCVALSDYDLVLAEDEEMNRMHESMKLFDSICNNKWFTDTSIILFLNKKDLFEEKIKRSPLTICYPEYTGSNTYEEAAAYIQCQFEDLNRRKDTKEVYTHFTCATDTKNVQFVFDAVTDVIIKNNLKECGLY
# Sa growth 42C = blocks Staphylococcus aureus growth | AID 720641 | relative growth, % (test concentration not listed) | 170,000 compounds, 0.53% hits | S. aureus RN4220 growth, OD600, 20 h, 42 °C; stronger effect = lower value;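 active = growth at 42 °C up to 50% and 20 or more points under that at 30 °C, or under 10% at both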;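 also: 300 nL library stock went into each well; scaled to the means of positive and negative controls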
# HCMV NEC inh = disrupts HCMV UL50-UL53 complex binding; HTRF UL50-UL53 interaction, normalized percent inhibition; inhibition, % (test concentration not listed); 190,000 compounds, 0.15% hits;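 active = both replicates at 50% or more, plus weaker picks with an unusually low signal ratio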;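 also: stock transfer was 100 nL into about 20 µL; 0% = negative control wells and 100% = wells with untagged competitor protein; inactives centre near -12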
# Sa growth 42C second temp = also measured in Sa growth 42C; calls as there; relative growth, %; measured here: growth at 30 °C;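 optical density after 20 h as mean of two plates; 100% = untreated growth and lower means inhibition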
# * marks the source's active call; other numbers are inactive results; . = not tested or not shown; & = joins results of further samples. Hits appear at their usual frequency; 0.82% or so of the library scored in one or more.
SMILES,GIV-Gai inh,Sa growth 42C,Sa growth 42C second temp,HCMV NEC inh
Cc1cc(Nc2cccc(C)c2C)n2cnnc2n1,103,92,94,15
Cc1ccc(CN2CCSc3ccc(C(=O)Nc4ccc(F)cc4)cc32)cc1,97,112,102,.
C/C(=N\N(C)C)c1cc(Cl)cc(Cl)c1O,104,96,90,-13
Cc1cc(=O)c2cc(C(=O)Nc3ccccc3)ccc2[nH]1,107&99,95,84,-17&1
O=C(NCCN1CCOCC1)c1cccc(Cl)c1,.,96,88,-6
O=C1Nc2ccccc2N2C1CC(=O)N(c1ccccc1)C2c1ccc(F)cc1 (stereo not drawn),.,72,94,-26
O/N=C/c1c(O)c(Br)cc2oc3c(c12)CCCC3,99,110,81,.
O=C1CCCN=C(Nc2cccc(F)c2)S1,95,102,101,-11
NC(=O)c1sc(-c2ccsc2)cc1NC(=O)c1cccs1,100,99,99,-10
O=c1[nH]c2ccccc2n(-c2ccc(Cl)cc2)c1=O,103,118,96,6
Cc1ccc(-c2ccc(=O)n(CCC(=O)NCCc3ccccc3)n2)cc1,105,124,91,.
CC(C)OC(=O)c1ccc(NC(=O)CSc2nc3ncccc3[nH]2)cc1,109,86,73,.
Cc1cccc(C(=O)Nc2cc3c(cc2C)n(C)c(=O)n3C)c1,101,80,86,.
COC(=O)c1ccc(CSc2nnc3n(N)cnn23)cc1,.,91,95,-3
Cc1cc(C)c(-c2nc(C(N)=O)c3c(n2)n(-c2ccc(C)c(C)c2)c(=O)n3C)c(C)c1,104,.,.,-4
O=C(Nc1cccnc1)c1c(-c2ccccc2)c(-c2ccccc2)n[nH]c1=O,104,.,.,-33
Cc1ccc2cc3c(NCc4ccc(F)cc4Cl)n[nH]c3nc2c1,102,111,88,.
CN(Cc1ccccc1)S(=O)(=O)c1ccc(C(=O)Nc2nnc(-c3ccco3)o2)cc1,102,83,89,-38
COc1ccc(COc2ccc(=O)n(-c3ccc(C(=O)NC4CCCC4)cc3)n2)cc1,105,.,.,-65
COc1ccc(C(=O)COC(=O)c2cc(-c3cccs3)nc3ccccc23)cc1,107,99,82,-27
C/C(=N\OCc1ccccc1C#N)c1cc2ccccc2o1,.,109,97,-8
COc1ccc(OC)c(C(=O)CC2(O)C(=O)Nc3ccccc32)c1 (stereo not drawn),106,93,88,.
NNS(=O)(=O)c1ccc(Cl)cc1,104,123,84,-23
Cc1cccc(-c2n[nH]c(=S)n2C2CCCCC2)c1,105,109,103,-9

# Results in Sa growth 42C second temp, GIV-Gai inh and Sa growth 42C (4 entries from above):
smiles | Sa growth 42C second temp | GIV-Gai inh | Sa growth 42C
Cc1cc(C)c(-c2nc(C(N)=O)c3c(n2)n(-c2ccc(C)c(C)c2)c(=O)n3C)c(C)c1 | . | 104 | .
O=C(Nc1cccnc1)c1c(-c2ccccc2)c(-c2ccccc2)n[nH]c1=O | . | 104 | .
COC(=O)c1ccc(CSc2nnc3n(N)cnn23)cc1 | 95 | . | 91
COc1ccc(OC)c(C(=O)CC2(O)C(=O)Nc3ccccc32)c1 (stereo not drawn) | 88 | 106 | 93

# More compounds follow:
SMILES,GIV-Gai inh,Sa growth 42C,Sa growth 42C second temp,HCMV NEC inh
N#CC(C(=O)CCN1C(=O)c2ccccc2C1=O)c1nc2ccccc2[nH]1 (stereo not drawn),.,99,93,-19
O=S(=O)(Nc1nc2ccccc2nc1Nc1ccccc1F)c1ccc(Cl)cc1,107,88,89,.
CCOC(=O)c1c(C)[nH]c(NC(=O)NCc2cccnc2)c1C,105,102,92,12
COC(=O)c1ccc(NC(=O)C2CCN(S(=O)(=O)c3ccc4c(c3)CCCN4C(C)=O)CC2)cc1,98,85,63,.
COC(=O)c1scc(-c2ccc(C)cc2)c1S(=O)(=O)N1CCN(c2ccccc2F)CC1,109,112,101,.
COc1ccc(-c2cc(C(=O)NCCc3ccccc3)c3c(-c4ccccc4)[nH]nc3n2)cc1OC,106,98,104,-10
Cn1ccnc1C(O)c1cccs1 (stereo not drawn),.,103,85,-17
CC12CC3CC(C)(C1)CC(NCc1ccccn1)(C3)C2,99,110,67,-25
Cc1ccc(OCc2cc(=O)n3cc(C)sc3n2)cc1,94,.,.,16
CCOc1ccc(OCC)c(NC(=O)C2CCCN(S(=O)(=O)c3cccs3)C2)c1 (stereo not drawn),107,100,88,0
Cc1nn(-c2ccc3nncn3n2)c2c1C(c1ccsc1)CC(=O)N2 (stereo not drawn),101,.,.,-28
COc1ccc2c(C)cc(SCC(=O)Nc3nsc(-c4ccccc4C)n3)nc2c1,103,112,104,-1
N#C/C(=C/c1cn(-c2ccccc2)nc1-c1cc2ccccc2oc1=O)C(N)=O,99,112,95,-1
Cc1sc2ncnc(N)c2c1C,.,93,90,-5
CNC(=O)c1ccc(-c2nc(CN3CCN(C(=O)Nc4cc(OC)cc(OC)c4)CC3)c(C)o2)cc1,106,.,.,-42
CCc1ccc(C2=NN(CCC(=O)NC(C)CC)C(=O)CC2)cc1 (stereo not drawn),104,114,88,.
CC(C)(C)NS(=O)(=O)c1ccc(NC(=O)c2ccc(Br)o2)cc1,107,92,99,-5
CN(C)C=Nc1ccc(S(=O)(=O)c2ccc(N=CN(C)C)cc2)cc1,.,91,92,8
CC(=O)c1cc(-c2ccc(F)cc2)n(CCC(=O)Nc2nc3ccc(C)cc3s2)c1C,106,107,94,.
CC(C)Cc1cc(-c2nn3c(-c4ccc(F)cc4)nnc3s2)n[nH]1,103,.,.,-22
CC1(C)CC2CC(C)(CN2C2=CC3=CC(=C(C#N)C#N)CCC3CC2)C1 (stereo not drawn),.,101,99,-40
C=CCn1c(SCC(=O)Nc2ccc3c(c2)OCO3)nc2ccccc2c1=O,.,79,85,-31
C(=C\c1ccncc1)/c1ccncc1,105,91,86,.
CCCCNC(=O)CCc1c(C)nc2c(c(C)nn2-c2ccc(C)c(C)c2)c1C,100,.,.,-11
COC(=O)C12CCC(C)(C(=O)O1)C2(C)C (stereo not drawn),96,95,93,-13
CCOC(=O)c1sc(N)c(C#N)c1COC(=O)CNC(=O)c1ccccc1,.,80,86,-21
CCn1cnc2c(=O)oc3ccc(S(=O)(=O)Nc4ccc(OC)cc4)cc3c21,104&98,100,77,-6&-10
Cc1ccc(C)c(Cn2c(=O)n(C(C)C)c(=O)c3oc4ccccc4c32)c1,97,102,93,.
CC1=C(NC(=S)NC(=O)c2ccccc2)NCc2ccccc21,.,96,68,-2
COc1cc2c(cc1NC(=O)COc1ccc(Br)c(C)c1)oc1ccccc12,102,106,83,-27
COc1ccc(S(=O)(=O)c2c(O)c3ccc(C(=O)NCc4ccc(Cl)cc4)cc3[nH]c2=O)cc1,101,103,81,.
Cc1c(C)c(C)c(C(=O)CCc2cccc(NC(=O)C3CCC3)c2)c(C)c1C,100,102,97,8
Clc1cccc2c(N3CCC(n4cccc4)CC3)ccnc12,98,90,79,-12
Cc1ccc(NC(=O)Cn2c(=O)n(-c3cc(C)cc(C)c3)c(=O)c3sccc32)cc1,111,87,94,0
CCOC(=O)c1c(NC(=O)c2ccc(OC)cc2)sc(C(=O)Nc2ccccc2C(F)(F)F)c1C,105,.,.,-4
COC(=O)c1sc(S(=O)(=O)N2CCN(c3ccc(OC)cc3)CC2)c(C(=O)OC)c1C,106,106,99,17
O=C(N/C=C/c1ccsc1)Nc1ccccc1C(F)(F)F,104,75,93,4
Cc1ccc2ccc3cc(C(=O)NCCC(C)C)nc3c2[nH]1,103,.,.,-6
O=C(CBr)Nc1cccc(C(F)(F)F)c1,.,71,97,3
NC(=O)c1c(O)sc2c1CCCC2,.,88,100,0
COc1cccc(C(=O)Nc2ccc(C(=O)OCc3cc(=O)n4nc(C5CC5)sc4n3)cc2)c1,100,90,88,.
CCOc1ccccc1N(C)C(=O)c1nn(-c2ccc(OC)cc2OC)c(=O)c2ccccc12,107,112,91,-9
Nc1nc(SCc2cccc(C(F)(F)F)c2)ncc1C(=O)O,99,105,79,-21
CCOC(=O)c1c(C=O)oc2c(C)cc(OC(=O)c3cc(C)cc(C)c3)c(Br)c12,100,.,.,-10
CCC(=O)N1N=C(c2ccccc2)CC1Cc1cc2cccc(C)c2[nH]c1=O (stereo not drawn),105,.,.,-15
O=C(Nc1cccnc1)c1ccc(COc2ccccc2Br)cc1,.,94,87,0
Cc1ccc2c(CN3CCN(CC#N)CC3)cc(=O)oc2c1,101,94,72,-25
Cc1ccc(Cn2ccc(NC(=O)c3noc4c3CCc3ccccc3-4)n2)cc1,112,98,83,.
NC(=O)C1CCN(C(=O)c2ccc3c(c2)N(Cc2cccc(Cl)c2)C(=O)c2ccccc2S3=O)CC1 (stereo not drawn),97,126,89,.
COc1ccc(-c2oc3ncn4nc(-c5ccccc5C)nc4c3c2-c2ccc(OC)cc2)cc1,111,102,103,-12
O=C(O)/C=C/C(=O)NCc1ccc(F)cc1,102,104,77,-9
COc1ccccc1NC(=O)NNc1c(C)cc(C)cc1C,.,96,94,-16
O=C(O)c1ccc(CN2CCN(Cc3ccc(C(=O)O)o3)CC2)o1,97,105,76,-16
N#Cc1cc(C(=O)O)c(=O)[nH]c1SCc1ccccc1Cl,.,86,74,-48
C[C@H](N=C1NS(=O)(=O)c2ccccc21)C(=O)OCC(=O)N1CCC(c2ccccc2)=N1,.,87,89,-20
Cc1ccc(NS(=O)(=O)c2cccc(C(=O)Nc3ccccc3)c2)cc1,106,117,68,.
OCC(O)C(O)C(O)C1Nc2ccccc2S1 (stereo not drawn),104,76,76,45
Cc1nc2ccc(NC(=O)C(C)(C)C(=O)Nc3ccc4nc(C)c(C)nc4c3)cc2nc1C,.,103,87,-6
COc1ccccc1CCNC(=O)CCc1c(C)c2cc3c(C)coc3c(C)c2oc1=O,104,104,92,9
COc1cccc(C2C3=C(CC(c4ccc(O)cc4)CC3=O)Nc3onc(C)c32)c1OC (stereo not drawn),104,.,.,-3
# (more compounds)
SMILES,GIV-Gai inh,Sa growth 42C,Sa growth 42C second temp,HCMV NEC inh
Cc1ccc(S(=O)(=O)C(CNC(=O)COc2ccccc2)c2cccs2)cc1 (stereo not drawn),98,79,82,.
NS(=O)(=O)c1ccc(NC(=O)CN2CCCC2)cc1,98,94,92,-14
NC(=O)Cn1cnc2nc(N3CCCCC3)sc2c1=O,99,.,.,-31
Cc1ccc2onc(CC(=O)NCCN3CCN(C)CC3)c2c1,102,82,91,.
CCOc1ccc2cc(C3CC(c4ccco4)=NN3S(=O)(=O)c3ccccc3)c(Cl)nc2c1 (stereo not drawn),108,73,60,.
CCOC(=O)N1CCC(NC(=O)C2c3ccccc3C(=O)N(C)C2c2cn(C)c3ccccc23)CC1 (stereo not drawn),100,90,86,-35
CCCc1c(C(=O)NCCc2ccccn2)cnn1-c1ccc(Cl)cc1,102,82,80,-14
CC(C)C12CN3CC(C(C)C)(CN(C1)C3c1ccc(O)cc1O)C2=O (stereo not drawn),119&105,.,.,-11
CC(C)(C)c1ccc(OCCCC(=O)O)cc1,.,95,87,-34
O=S(=O)(Nc1ccc2c(c1)OC1(CCCCC1)O2)c1ccc2ccccc2c1,.,117,91,-8
CCCOc1ccc(C(=O)NCC2(c3ccccc3)CCOCC2)cc1,103,96,83,-14
CCOc1ccc(-c2nonc2NC(=O)C(C)C)cc1C,101,.,.,-21

# Copied from the list:
# C[C@H](N=C1NS(=O)(=O)c2ccccc21)C(=O)OCC(=O)N1CCC(c2ccccc2)=N1 in Sa growth 42C second temp shows 89
# CC1=C(NC(=S)NC(=O)c2ccccc2)NCc2ccccc21 in Sa growth 42C shows 96
# CNC(=O)c1ccc(-c2nc(CN3CCN(C(=O)Nc4cc(OC)cc(OC)c4)CC3)c(C)o2)cc1 in GIV-Gai inh shows 106
# C/C(=N\N(C)C)c1cc(Cl)cc(Cl)c1O in Sa growth 42C shows 96
# COc1ccc(OC)c(C(=O)CC2(O)C(=O)Nc3ccccc32)c1 (stereo not drawn) in Sa growth 42C shows 93

# Next part
SMILES,GIV-Gai inh,Sa growth 42C,Sa growth 42C second temp,HCMV NEC inh
COC(=O)c1ccccc1NC(=O)c1nn(-c2ccc(OC)cc2)c(=O)c2c1c1ccccc1n2C,100,103,87,-21
O=C(Nc1nnc(S(=O)(=O)N2CCCCC2)s1)c1ccc(Cl)cc1,100,93,73,-12
Cc1ccc(N(C)C(=O)c2cc(S(=O)(=O)N3CCOCC3)cn2C)cc1,101,104,82,-16
CCCCc1ccc(NC(=O)Nc2cc(C(C)(C)C)nn2C)cc1,108,96,99,-26
Cc1ccc(S(=O)(=O)c2nc(-c3ccccc3Cl)oc2N2CCCCCC2)cc1,100,98,87,4
CCCCC(=O)Nc1cc(-c2nc3cc(C(C)C)ccc3o2)ccc1OC,97,90,76,-10
Nn1c(SCCCSc2nnc(C(F)(F)F)n2N)nnc1C(F)(F)F,.,86,93,-10
CC(C)(C)NS(=O)(=O)c1ccc2nc(NC(=O)c3cccnc3)sc2c1,100,71,69,.
C(CN1CCOCC1)NC1CC2CCC1C2 (stereo not drawn),111,96,77,2
CC(C)=CCCC(C)N1CCCCC1 (stereo not drawn),101,95,87,-19
O=C(CCc1ccc(O)cc1)c1c(O)cc(O)cc1O,102,.,.,-2&-38
CC(=O)Nc1cccs1,104,108,97,-5
CC(C)C(=O)Nc1ccc([N+](=O)[O-])c(C(F)(F)F)c1,106&105,85&96,78&92,-55&-38&-36&-21&-74&-45
Cc1cccc(C(=O)N2CCN(S(=O)(=O)N3CCCCC3)CC2)c1,106,100,100,-19
Cn1c(=O)c2[nH]c(-c3ccc(OCC(=O)NCc4ccccc4)cc3)nc2n(C)c1=O,104,93,104,2
